# GIV Gai3 FP – inhibitors of GIV peptide binding to Galpha-i3, primary screen, biochemical, fluorescence polarization, FITC-GIV GBA peptide, rat Galphai3; Guanine nucleotide-binding protein G(i) subunit alpha-3 (Rattus norvegicus), P08753; 90 min; stronger effect = lower value; scaled: aluminum fluoride 0%, vehicle 100%; percent of control (FP), % (no concentration beside the values); actives 0.42% (n = 210,000); AID 1224905, 2016;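 active = replicate mean at 85% of control or lower, very high polarization wells dropped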;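 also: wells of about 15 µL received 100 nL stock; the first replicate is given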
# Target sequence (P08753 whole entry, looked up): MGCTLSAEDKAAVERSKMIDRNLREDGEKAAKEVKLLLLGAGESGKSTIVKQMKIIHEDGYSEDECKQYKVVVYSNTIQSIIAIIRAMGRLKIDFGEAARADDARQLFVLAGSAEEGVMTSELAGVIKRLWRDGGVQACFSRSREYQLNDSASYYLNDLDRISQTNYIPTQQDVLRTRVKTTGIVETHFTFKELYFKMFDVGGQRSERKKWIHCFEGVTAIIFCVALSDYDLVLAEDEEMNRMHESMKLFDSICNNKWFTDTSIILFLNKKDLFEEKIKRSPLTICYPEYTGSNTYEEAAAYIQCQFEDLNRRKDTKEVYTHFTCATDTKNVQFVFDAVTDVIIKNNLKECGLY
# Numbers without * were called inactive. The list is partial (hit frequency here may not be typical).
O=S(=O)(c1ccc(-c2nnc(C3CCC3)o2)o1)N1CCOCC1
  GIV Gai3 FP = 104

COc1ccc2c(c1)c1nc(SCc3c(C)noc3C)n(C)c(=O)c1n2C
  GIV Gai3 FP = 96

COc1ccc(-n2ncc3c(NCCc4ccc(S(N)(=O)=O)cc4)ncnc32)cc1
  GIV Gai3 FP = 106

COc1ccc(Br)cc1CN1CCCC1c1cc(C(C)C)on1 (centres undefined)
  GIV Gai3 FP = 106

Cc1cccc2nc(CSc3nc4[nH]ncc4c(=O)n3-c3ccccc3Cl)cc(=O)n12
  GIV Gai3 FP = 111

CSc1sccc1/C=N/NC(=O)c1nnn(-c2nonc2N)c1-c1ccccc1
  GIV Gai3 FP = 110

CCOC(=O)CSc1nc2cc(C(=O)N3CCc4ccccc4C3)ccc2c(=O)n1-c1ccccc1
  GIV Gai3 FP = 108

CC(=O)Nc1ccc(-c2noc(C3CCCN(C(=O)c4ccccc4F)C3)n2)cc1 (centres undefined)
  GIV Gai3 FP = 103

COc1ccc(-c2nc3ccccc3c3nnc(SCc4cccnc4)n23)cc1
  GIV Gai3 FP = 103

CC(C)(C)NC(=O)N1CCC(c2nc(CCNC(=O)C3CC3)cs2)CC1
  GIV Gai3 FP = 102

# Four entries from above, with tabs.
compound	GIV Gai3 FP
CCOC(=O)CSc1nc2cc(C(=O)N3CCc4ccccc4C3)ccc2c(=O)n1-c1ccccc1	108
Cc1cccc2nc(CSc3nc4[nH]ncc4c(=O)n3-c3ccccc3Cl)cc(=O)n12	111
O=S(=O)(c1ccc(-c2nnc(C3CCC3)o2)o1)N1CCOCC1	104
COc1ccc2c(c1)c1nc(SCc3c(C)noc3C)n(C)c(=O)c1n2C	96

# (list continues)
O=C(Nc1ccc2c(c1)OCO2)c1nnc(C2CCN(C(=O)Nc3ccc(F)cc3F)CC2)s1
  GIV Gai3 FP = 101

CC(C)c1ccc(C2N(Cc3ccccc3)CCN2Cc2ccccc2)cc1
  GIV Gai3 FP = 108

C#CCOc1cccc(C2CC(=O)Nc3c2c(C)nn3-c2nc3ccccc3s2)c1 (centres undefined)
  GIV Gai3 FP = 101

CCOC(=O)c1sc(=S)n(-c2cc(OC)ccc2OC)c1N
  GIV Gai3 FP = 105

OC(CN1CCN(CC(O)Cn2c3ccc(Cl)cc3c3cc(Cl)ccc32)CC1)Cn1c2ccc(Cl)cc2c2cc(Cl)ccc21 (centres undefined)
  GIV Gai3 FP = 109

C[N+]1(C)CCc2cc3c(c4c2C1Cc1ccccc1-4)OCO3 (centres undefined)
  GIV Gai3 FP = 113

CC(=O)[C@@H]1[C@@H](c2ccc3c(c2)OCO3)C(C#N)(C#N)[C@H]2C=Cc3ccccc3N12
  GIV Gai3 FP = 152

O=S(=O)(c1ccc(-c2nnc(C3CC3)o2)o1)N1CCN(C2CCCCC2)CC1
  GIV Gai3 FP = 103

COc1cccc(NC(=O)CSc2nc3cc(C(=O)NCc4ccco4)ccc3c(=O)n2Cc2ccco2)c1
  GIV Gai3 FP = 107

CCc1cccc(C)c1NC(=O)Cn1c(=O)c(CCC(=O)NC2CCCC2)nc2ccccc21
  GIV Gai3 FP = 97

# 6 entries from above, sorted by length of the SMILES, smallest number first:
CCOC(=O)c1sc(=S)n(-c2cc(OC)ccc2OC)c1N
  GIV Gai3 FP = 105

C[N+]1(C)CCc2cc3c(c4c2C1Cc1ccccc1-4)OCO3 (centres undefined)
  GIV Gai3 FP = 113

O=S(=O)(c1ccc(-c2nnc(C3CC3)o2)o1)N1CCN(C2CCCCC2)CC1
  GIV Gai3 FP = 103

CCc1cccc(C)c1NC(=O)Cn1c(=O)c(CCC(=O)NC2CCCC2)nc2ccccc21
  GIV Gai3 FP = 97

O=C(Nc1ccc2c(c1)OCO2)c1nnc(C2CCN(C(=O)Nc3ccc(F)cc3F)CC2)s1
  GIV Gai3 FP = 101

OC(CN1CCN(CC(O)Cn2c3ccc(Cl)cc3c3cc(Cl)ccc32)CC1)Cn1c2ccc(Cl)cc2c2cc(Cl)ccc21 (centres undefined)
  GIV Gai3 FP = 109

# The results go on:
Cc1c(C(=O)N2CCN(c3ccc(F)cc3)CC2)sc2ncn(CC(=O)N3CC(C)CC(C)C3)c(=O)c12 (centres undefined)
  GIV Gai3 FP = 108

Cc1nn(-c2ccc3nncn3n2)c2c1C(c1ccc(OC3CCCC3)cc1)CC(=O)N2 (centres undefined)
  GIV Gai3 FP = 102

O=C(CSc1nc2ccccc2[nH]1)OCC(=O)N1c2ccccc2Sc2ccccc21
  GIV Gai3 FP = 110

CCOC(=O)C1CCN(c2nc(CC(=O)OC)nc3sc4c(c23)CCCC4)CC1
  GIV Gai3 FP = 99

CCn1cc(C(=O)NC)c(S(=O)(=O)N2CCSCC2)n1
  GIV Gai3 FP = 100

CCOC(=O)C1CCN(C(=O)c2snc3c(=O)n(C(C)C)c(=O)[nH]c23)CC1
  GIV Gai3 FP = 96

COC(=O)C1=NN(C(=O)c2ccc(Cl)cc2)C(O)(c2ccc(Br)cc2)C1 (centres undefined)
  GIV Gai3 FP = 181

COc1ccc2c3c(ccc2c1)OC(c1ccccc1)(c1ccccc1)C=C3
  GIV Gai3 FP = 98

CC(C)(C)C1=CC2(C=C(C(C)(C)C)C1=O)Nc1cc(Br)ccc1OC2c1ccc([N+](=O)[O-])cc1 (centres undefined)
  GIV Gai3 FP = 107

CC(C)(C)c1csc(-c2csc(S(=O)(=O)NC3CCCCC3)c2)n1
  GIV Gai3 FP = 101

O=C(C1CCN(c2nc3ccccc3[nH]2)CC1)N1CCN(C2CCCCC2)CC1
  GIV Gai3 FP = 100

COc1cccc(NC(=O)C2CCCN(C(=O)C3Sc4ccccc4NC3=O)C2)c1 (centres undefined)
  GIV Gai3 FP = 109

COc1ccc(CNc2ccc(C(=O)N3CCC(C)CC3)cc2S(=O)(=O)Nc2cccc(OC)c2)cc1
  GIV Gai3 FP = 119

COc1ccc(CNC(=O)Cn2nc3c4sc(N(C)C)nc4ncn3c2=O)cc1
  GIV Gai3 FP = 100

CN(CC(=O)Nc1ccc2c(c1)OCCO2)S(=O)(=O)c1cc2c(cc1Cl)NC(=O)CO2
  GIV Gai3 FP = 105

CCOc1ccc2c(c1)sc1nc(-c3ccc(O)cc3)c(NC(C)(C)C)n12
  GIV Gai3 FP = 96

CCc1ccc(S(=O)(=O)c2cnc(N3CCN(c4cccc(C)c4C)CC3)nc2N)cc1
  GIV Gai3 FP = 97

CN(Cc1ccccc1)S(=O)(=O)c1ccc(F)c(C(=O)Nc2c(F)cc(F)cc2Br)c1
  GIV Gai3 FP = 105

O=[N+]([O-])c1cccc(CSc2nc3ccccc3n2S(=O)(=O)c2ccc(Br)cc2)c1
  GIV Gai3 FP = 112

COc1ccc(N2CCN(S(=O)(=O)c3ccc(F)c(C(=O)Nc4cc(OC)ccc4OC)c3)CC2)cc1
  GIV Gai3 FP = 106

Cc1ccc(-c2nc(Cn3cnc(S(=O)(=O)N4CCCCC4)c3)no2)s1
  GIV Gai3 FP = 104

CCOC(=O)CC(=O)Nc1c(C)nc2sccn2c1=O
  GIV Gai3 FP = 100

CCS(=O)(=O)N1CCCN(C(=O)C2CCCO2)CC1 (centres undefined)
  GIV Gai3 FP = 100

C=CCn1c(=O)c2sc(N3CCCCC3)nc2n(CC(=O)Nc2ccc3c(c2)OCCO3)c1=O
  GIV Gai3 FP = 101

Cc1ccc2c(c1Br)C1(C(=O)N2)C(C#N)=C(N)Oc2n[nH]c(-c3ccc4c(c3)OCO4)c21 (centres undefined)
  GIV Gai3 FP = 104

Cc1ccc(Cl)cc1NC(=O)C1CCCN(C(=O)c2ccccc2F)C1 (centres undefined)
  GIV Gai3 FP = 101

O=C(Nc1c(Cl)cccc1Cl)C1CC1(c1ccccc1)c1ccccc1 (centres undefined)
  GIV Gai3 FP = 100

CCOc1ccc(CNC(=O)c2ccc(-c3cccnc3)cc2)cc1OCC
  GIV Gai3 FP = 100

COc1cccc(-c2noc(CCn3nc(-c4cccc(Cl)c4)ccc3=O)n2)c1OC
  GIV Gai3 FP = 103

Cc1ccc(Nc2nc(C(N)=O)c(NC(=O)COc3ccccc3)s2)cc1
  GIV Gai3 FP = 106

O=C1c2ccccc2C(=O)N1CCN1CCCc2ccccc21
  GIV Gai3 FP = 106

Cc1ccc2c(c1)-c1nc3ccccc3cc1C2=Nc1ccccc1
  GIV Gai3 FP = 102

Cc1sc2cc(C(=O)N3CCC4(CC3)OCCO4)[nH]c2c1CN1CCCCC1
  GIV Gai3 FP = 100

CC(=O)OCC1OC(Oc2ccc(C(=O)COc3ccc(F)cc3)c(O)c2)C(OC(C)=O)C(OC(C)=O)C1OC(C)=O (centres undefined)
  GIV Gai3 FP = 107

Cc1ccc(S(=O)(=O)N(CC(O)Cn2c3ccccc3c3ccccc32)c2c(C)cccc2C)cc1 (centres undefined)
  GIV Gai3 FP = 107

Cc1ccsc1CN1CCCCCC1c1cccs1 (centres undefined)
  GIV Gai3 FP = 101

Cc1cccn2c(=O)c(/C=C3\SC(=S)N(Cc4ccccc4)C3=O)c(NCc3ccco3)nc12
  GIV Gai3 FP = 265

O=c1c2cc(-c3ccc(F)cc3)nn2cnn1Cc1nc(-c2ccc3c(c2)OCO3)no1
  GIV Gai3 FP = 109

CCOC(=O)c1ccc(N=C(C)c2c(-c3ccccc3)[nH]n(-c3nc4ccccc4s3)c2=O)cc1
  GIV Gai3 FP = 106

COc1ccc(NC(=O)N(Cc2nnc3n2CCCCC3)c2ccc(C)c(Cl)c2)cc1
  GIV Gai3 FP = 96

Cc1ccc(N/C(SCc2ccccc2C)=C(/C#N)C(=O)NCc2ccco2)cc1C
  GIV Gai3 FP = 106

CCCc1ccc(S(=O)(=O)Nc2ccc3nnc(-c4cccc(C)c4)n3n2)cc1
  GIV Gai3 FP = 101

O=S(=O)(c1cccc(-c2nc(-c3ccccc3)no2)c1)N1CCOCC1
  GIV Gai3 FP = 94

Cc1nc2sccn2c(=O)c1NC(=O)CC(c1ccccc1)c1ccccc1
  GIV Gai3 FP = 110

CCn1nc(CO)c2c1CCN(Cc1scnc1C)C2
  GIV Gai3 FP = 106

Cc1ccc(S(=O)(=O)N2CCC(c3noc(-c4cccc(F)c4)n3)CC2)cc1C
  GIV Gai3 FP = 103

CCCNc1nc(OCC(F)(F)F)nc(OCC(F)(F)F)n1
  GIV Gai3 FP = 101

CCOP(=O)(OCC)c1nc(-c2ccc(Cl)cc2Cl)oc1NC
  GIV Gai3 FP = 114

O=C(C1CCCC1)N1CCN(Cc2noc(-c3ccccc3)n2)CC1
  GIV Gai3 FP = 102

O=C(Nc1ccccc1Br)c1cc(S(=O)(=O)N2CCN(c3ccccc3Cl)CC2)ccc1F
  GIV Gai3 FP = 109

O=C(Nc1cccc(Cl)c1)c1nc2nc(-c3ccc(F)cc3)cc(C(F)(F)F)n2n1
  GIV Gai3 FP = 104

CCOC(=O)C1CCN(c2ncc(S(=O)(=O)c3ccc(CC)cc3)c(N)n2)CC1
  GIV Gai3 FP = 109

CCOC(=O)COc1ccc(C2Nc3ccc4ccccc4c3C3=C2C(=O)CC(C)(C)C3)cc1OC (centres undefined)
  GIV Gai3 FP = 102

CN(C)C(=O)c1cc(NC(=O)c2ccc(F)cc2)cnc1N1CCNCC1
  GIV Gai3 FP = 98

Cc1ccc(S(=O)(=O)Nn2c(SCC(=O)NCCc3ccc(S(N)(=O)=O)cc3)nc3ccccc3c2=O)cc1
  GIV Gai3 FP = 122

Cc1ccc(S(=O)(=O)Cc2noc(CCNS(=O)(=O)c3ccc(C)cc3)n2)cc1
  GIV Gai3 FP = 101

Cc1nc(N2CCOCC2)c2c(C)c(C(=O)Nc3ccccn3)sc2n1
  GIV Gai3 FP = 96

CCOc1ccc(-n2nnc3c(N4CCN(C(=O)C(C)Oc5ccccc5)CC4)ncnc32)cc1 (centres undefined)
  GIV Gai3 FP = 97

Cc1c(C(=O)N2CCC3(CC2)OCCO3)sc2ncn(CC(=O)Nc3cccc(C(F)(F)F)c3)c(=O)c12
  GIV Gai3 FP = 102

CC1CN(C(=O)C2CC2)c2ccccc2O1 (centres undefined)
  GIV Gai3 FP = 101

COc1ccc(C(=O)N/C(=C\c2ccc3c(c2)OCO3)C(=O)Nc2cccc(C(=O)O)c2)cc1
  GIV Gai3 FP = 119

O=C(Nc1ccc(F)cc1)C1CC1(c1ccccc1)c1ccccc1 (centres undefined)
  GIV Gai3 FP = 107

COC(=O)c1ccc(N=CC23c4ccccc4C(c4ccccc42)C2C(=O)N(c4ccc(C)cc4)C(=O)C23)cc1 (centres undefined)
  GIV Gai3 FP = 103

O=S(=O)(Cc1nc(-c2ccc3c(c2)OCO3)no1)c1ccc(Cl)cc1
  GIV Gai3 FP = 99

Cc1oc(-c2ccccc2)nc1Cn1nnc(-c2nc(-c3ccc(F)c(Br)c3)no2)c1C
  GIV Gai3 FP = 106

COc1ccccc1NC(=O)Cn1cnc2sc(C(=O)N3CCN(c4ccc([N+](=O)[O-])cc4)CC3)c(C)c2c1=O
  GIV Gai3 FP = 99

CCOC(=O)CSc1nc(NCC2CCCO2)c2ccccc2n1 (centres undefined)
  GIV Gai3 FP = 108

Cc1ccc(OCCOc2ccc(/C=C3/C(=N)N4C(c5ccccc5)=CSC4=NC3=O)cc2)cc1
  GIV Gai3 FP = 104

O=C(Nc1ccc(C2(C(=O)NC3CCCCC3)CC2)cc1)c1cccc(Cl)c1
  GIV Gai3 FP = 102

COc1ccc(C2(c3ccc(OC)cc3OC)C=Cc3c(ccc4ccccc34)O2)c(OC)c1
  GIV Gai3 FP = 114

Cc1c(C(=O)NCCCN2CCOCC2)sc2ncnc(N3CCN(c4ccccn4)CC3)c12
  GIV Gai3 FP = 102

COc1ccc(NC(=O)c2ccc3c(=O)n(CC4CCCO4)c(=S)[nH]c3c2)cc1Cl (centres undefined)
  GIV Gai3 FP = 109

O=C(CCCn1c(=S)[nH]c2ccc(Br)cc2c1=O)NCCc1c[nH]c2ccccc12
  GIV Gai3 FP = 105

Cc1ccc(/C(O)=C2\C(=O)C(=O)N(CCN3CCOCC3)C2c2ccccc2)cc1 (centres undefined)
  GIV Gai3 FP = 115

# Assay outcomes: PubChem BioAssay, ICCB-Longwood Screening Facility, Harvard Medical School
